From PubChem BioAssay
KCNQ2 pot: potentiators of rat KCNQ2 potassium channel. O88943. CHO-K1 KCNQ2, FluxOR thallium flux fluorescence; hits give high values. B-score at 10 µM. 0.54% of 310,000 active. AID 2239;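 active means fluorescence ratio B-score at least 3 SD of library B-scores, with initial fluorescence B-score within 3 SD, cut at about 5.3 in these data; same plate scores as AID 2156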;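 further: B-score of peak minus minimum over baseline fluorescence ratio after K+ and Tl+ stimulus; positive B-score means potentiation of KCNQ2 with more thallium influx and brighter signal; only the inactives scoring about 0 or higher are listed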
Target sequence (O88943 whole entry, looked up): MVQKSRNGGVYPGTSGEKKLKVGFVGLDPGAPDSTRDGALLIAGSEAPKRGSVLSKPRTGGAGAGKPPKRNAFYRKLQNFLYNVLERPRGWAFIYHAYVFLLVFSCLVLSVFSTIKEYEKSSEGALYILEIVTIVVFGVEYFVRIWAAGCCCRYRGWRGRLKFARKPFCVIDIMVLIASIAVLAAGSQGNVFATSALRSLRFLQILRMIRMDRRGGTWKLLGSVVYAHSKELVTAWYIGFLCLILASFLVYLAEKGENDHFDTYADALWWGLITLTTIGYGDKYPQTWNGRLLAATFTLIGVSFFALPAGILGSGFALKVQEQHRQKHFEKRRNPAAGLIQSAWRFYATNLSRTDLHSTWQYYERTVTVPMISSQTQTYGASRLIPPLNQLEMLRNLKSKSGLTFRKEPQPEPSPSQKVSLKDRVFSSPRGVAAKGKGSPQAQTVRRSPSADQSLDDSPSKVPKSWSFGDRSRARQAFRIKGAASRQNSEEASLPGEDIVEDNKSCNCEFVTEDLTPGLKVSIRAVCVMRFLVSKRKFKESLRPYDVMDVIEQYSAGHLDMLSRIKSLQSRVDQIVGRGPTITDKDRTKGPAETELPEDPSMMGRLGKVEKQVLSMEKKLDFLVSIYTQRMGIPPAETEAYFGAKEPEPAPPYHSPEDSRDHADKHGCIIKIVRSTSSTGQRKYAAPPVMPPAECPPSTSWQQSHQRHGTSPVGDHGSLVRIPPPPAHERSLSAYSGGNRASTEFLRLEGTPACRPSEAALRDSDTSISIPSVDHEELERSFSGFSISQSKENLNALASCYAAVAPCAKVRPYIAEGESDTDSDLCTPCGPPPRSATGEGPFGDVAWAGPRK
KCNQ2 pot baseline: recorded beside KCNQ2 pot, whose call it bears; B-score; compound at 10 µM; measured here: initial fluorescence intensity artifact check;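 brightness before thallium and not channel activity; 0 = typical well and far values either way flag optical interference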
Starred values were filed as active, the others as inactive.

item | canonical_smiles | KCNQ2 pot baseline | KCNQ2 pot
1 | O=C(CSc1nc2ccccc2n1-c1ccccc1)NCC1CCCO1 (stereo not given) | -1.1 | 0.67
2 | CCOC(=O)Cn1c(N2CCOCC2)nc2c1c(=O)[nH]c(=O)n2C | -0.26 | 0.27
3 | O=C1c2ccccc2-c2ccc(C(=O)N3CCOCC3)cc21 | 0.36 | 0.81
4 | Cc1ccc(/C=N/N=C2/NC(=O)C(CC(=O)Nc3ccc(Cl)cc3)S2)o1 (stereo not given) | 0.19 | 1.6
5 | CS(=O)(=O)N(CC(=O)NCCc1ccccc1)C1CCCCC1 | 0.12 | 0.11
6 | CCC(C)(C)n1nnnc1C(c1cccs1)N1CCN(Cc2ccccc2)CC1 (stereo not given) | 0.12 | 0.05
7 | Cc1ccc(S(=O)(=O)NNC(=O)c2ccccc2O)cc1 | -0.29 | 0.98
8 | CC(C)CNC(=O)c1cc([N+](=O)[O-])ccc1N1CCCCC1 | 1.9 | 0.08
9 | CC(=O)c1cccc(CN2CCCC(CCC(=O)NCc3ccc(F)c(F)c3)C2)c1 (stereo not given) | -1.7 | 0.73
10 | O=C(O)c1cc(NS(=O)(=O)c2ccc(NC3CCCCC3)c([N+](=O)[O-])c2)cc(C(=O)O)c1 | 1.9 | 0.15
11 | O=C(Oc1ccc(F)cc1C(=O)/C=C/c1cccs1)c1cccc([N+](=O)[O-])c1 | -0.29 | 0.47
12 | COc1ccc(CNC(=O)C2CCC(CNC(=O)[C@@H]3Cc4ccccc4CN3)CC2)cc1 (stereo not given in full) | -0.9 | 0.2
13 | CN(C1CCS(=O)(=O)C1)S(=O)(=O)c1cccs1 (stereo not given) | 0.66 | 0.03
14 | COc1ccc(NS(=O)(=O)c2ccc(C)c(C(=O)OC(C)C(=O)N3CCOCC3)c2)cc1 (stereo not given) | -0.12 | 0.21
15 | COc1ccc(-c2noc(CNC(=O)CCN3C(=O)[C@H]4CC=CC[C@H]4C3=O)n2)cc1 | -0.51 | 0.04

Brought forward from above: two entries, followed by the next part.
item | canonical_smiles | KCNQ2 pot baseline | KCNQ2 pot
14 | COc1ccc(NS(=O)(=O)c2ccc(C)c(C(=O)OC(C)C(=O)N3CCOCC3)c2)cc1 (stereo not given) | -0.12 | 0.21
15 | COc1ccc(-c2noc(CNC(=O)CCN3C(=O)[C@H]4CC=CC[C@H]4C3=O)n2)cc1 | -0.51 | 0.04
16 | CCCCOC(=O)Nc1nnc(CCOCC)s1 | -0.77 | 1.7
17 | O=C(c1cccnc1)N1CCN(Cc2cccc(Br)c2)CC1 | 1.3 | 0.49
18 | Cc1ccccc1C(=O)N/N=C/c1ccsc1C | -0.47 | 0.1
19 | CCCCCCCCCc1nc2sc3c(c2c(=O)n1NC(=O)c1ccccc1[N+](=O)[O-])CC(C)(C)OC3 | 0.29 | 0.92
20 | Cc1c(C=O)c2ccccn2c1C(=O)c1ccccc1Cl | 0.69 | 1.6
21 | CCSc1nc(C)c(C(C)=O)cc1C#N | -0.06 | 0.12
22 | C=CCOC(=O)C1=C(C)NC(SCC(N)=O)=C(C#N)C1c1ccc(C)cc1 (stereo not given) | 0.28 | 1.1
23 | CCOc1ccc(C2CC(=O)NC(SC)=C2C#N)cc1 (stereo not given) | -1.7 | 0.22
24 | O=S(=O)(Cc1cccc(F)c1)c1c[nH]c2ccccc12 | 0.23 | 0.1
25 | Cc1nc2ncnn2c(C)c1CCC(=O)Nc1csc(N)n1 | -0.05 | 1.6
26 | CN(C)c1cc(-c2ccc(Cl)cc2Cl)oc(=O)c1Cl | 0.43 | 1.3
27 | COc1ccc(-c2c(=O)n(OCc3ccccn3)c3ccccc3[n+]2[O-])cc1OC | -0.54 | 0.02
28 | Cc1ccc2oc(=O)c3cnn(CC(=O)NCCN4CCOCC4)c3c2c1 | 1.7 | 1.5
29 | CC1CC(C)CN(S(=O)(=O)c2ccc3oc(=O)ccc3c2)C1 (stereo not given) | -0.08 | 1.7
30 | COC(=O)c1ccc(NC(=O)c2nc(S(=O)(=O)Cc3cccc(C)c3)ncc2Cl)cc1 | -0.03 | 0.15
31 | CC(C)c1ccc(/C=N/NC(=O)CC(=O)NC2CCCCC2)cc1 | 1.1 | 0.93
32 | C=CCN(Cc1nc(-c2ccc(OC)cc2)no1)C(=O)c1ccc2c(c1)OCO2 | 0.05 | 0.33
33 | Fc1ccc(NC(=S)N2CCCC2)cc1 | 1.1 | 0.53
34 | COC(=O)C1=C(C)N(Cc2ccccc2)C(=O)N[C@H]1CCc1ccccc1 | -0.09 | 1.3
35 | Cc1ccc(S(=O)(=O)NNC(=O)C2CC=CCC2C(=O)O)cc1 (stereo not given) | -0.27 | 0.16
36 | Cc1ccc(NS(=O)(=O)c2ccc(CCC(=O)NCCCOC(C)C)cc2)cc1 | -0.13 | 2
37 | CCOC(=O)N1CCN(C(=O)Cc2ccccc2OC)CC1 | 1.2 | 0.02
38 | COc1ccc(C(NC(=O)N2CC(C)OC(C)C2)C(Cl)(Cl)Cl)cc1F (stereo not given) | -0.23 | 1.2
39 | CC1CC(=O)Nc2ccccc2N1S(=O)(=O)c1ccccc1 (stereo not given) | 0.01 | 1.3
40 | Cc1ccccc1-n1nc2c(c1NC(=O)c1ccc(S(=O)(=O)N(C)C)cc1)CSC2 | 0.94 | 2
41 | O=S(=O)(NC1CCCC1)c1ccc(S(=O)(=O)N2CCN(c3ccccc3)CC2)cc1 | -0.16 | 0.62
42 | CC(=O)Nc1cccc(/C(C)=N/NC(=O)c2ccc(CN3CCOCC3)cc2)c1 | -1.5 | 1.2
43 | Cc1c(C(=O)OCC(=O)Nc2ccc(C(=O)N(C)C)cc2)oc2ccccc12 | 2 | 1.2
44 | COc1ccccc1C(=O)COC(=O)CCNS(=O)(=O)c1ccc(C)c(C)c1 | 1.8 | 0.02
45 | Fc1ccccc1-c1csc(=Nc2cccnc2)n1CCCn1ccnc1 | 2.3 | 0.04

One compound at a time, from the list above. Values in the order: KCNQ2 pot baseline	KCNQ2 pot
`CS(=O)(=O)N(CC(=O)NCCc1ccccc1)C1CCCCC1` in the list: 0.12	0.11
`Cc1ccc2oc(=O)c3cnn(CC(=O)NCCN4CCOCC4)c3c2c1` in the list: 1.7	1.5
`Cc1c(C=O)c2ccccn2c1C(=O)c1ccccc1Cl` in the list: 0.69	1.6
`CC(C)c1ccc(/C=N/NC(=O)CC(=O)NC2CCCCC2)cc1` in the list: 1.1	0.93
`COc1ccc(-c2noc(CNC(=O)CCN3C(=O)[C@H]4CC=CC[C@H]4C3=O)n2)cc1` in the list: -0.51	0.04

Next compounds.
item | canonical_smiles | KCNQ2 pot baseline | KCNQ2 pot
46 | COCCCNC(=O)C1CCCN(S(=O)(=O)c2cccc3nsnc23)C1 (stereo not given) | -1.5 | 0.4
47 | Cc1cccc(C(=O)Nc2ccc(C(=O)/C=C/c3cccs3)cc2)c1 | -0.47 | 1
48 | CC1CCN(S(=O)(=O)c2ccc(C(=O)NCc3ccc4c(c3)OCO4)cc2)CC1 | 0.36 | 0.98
49 | COCCCNC(=S)N1CCCC(c2nc3cc(C)c(C)cc3[nH]2)C1 (stereo not given) | 0.93 | 0.79
50 | CC(=O)N1CCN(S(=O)(=O)c2cccc(C(=O)OCC(=O)N3CC(=O)Nc4ccccc43)c2)CC1 | -1.2 | 2.1
51 | COc1ccc(CN2CCN(Cc3cccc(OC)c3)C(CCO)C2)cc1 (stereo not given) | 0.3 | 0.72
52 | CCn1c(=O)n(CC)c2cc(NC(=O)CSc3ccc([N+](=O)[O-])cn3)ccc21 | -0.3 | 0.97
53 | Cc1ccc(OCC(=O)N/N=C\c2ccc(C)o2)c([N+](=O)[O-])c1 | 0.18 | 0.4
54 | O=C(Cn1nc(C(=O)O)c2ccccc2c1=O)NCC1CCCO1 (stereo not given) | 0.01 | 0.74
55 | CCNC(=S)NNC(=O)c1csc2ccccc12 | -1.2 | 0.13
56 | Clc1ccc(/C=N/c2c(-c3ccco3)nc3ccccn23)cc1 | 0.16 | 1.8
57 | COc1ccc(C2=NS(=O)(=O)N(C)C(C(=O)NC(C)c3ccccc3)=C2)cc1 (stereo not given) | 0.06 | 1.3
58 | CCc1nn(CC(=O)NCCN2CCN(C)CC2)c(=O)c2cc3occc3n12 | 2.7 | 0.13
59 | CC(=O)c1ccc(N(CC(=O)NCCc2ccccc2)C(=O)c2csnn2)cc1 | -0.02 | 0.99
60 | O=C(NCc1ccccc1Cl)c1cccc(NC2=NC3CS(=O)(=O)CC3S2)c1 (stereo not given) | 0.08 | 0.68
61 | CCC1CCCCN1C(=O)CCc1nnc(C2CCCCC2)o1 (stereo not given) | -0.42 | 0.01
62 | CN(C)C(=O)CN1CCN(C(=O)CCl)CC1 | -0.88 | 0.14
63 | Cc1ccc(C)c(CN2C(=O)c3ccccc3S(=O)(=O)c3ccc(C(=O)N4CCN(C)CC4)cc32)c1 | -1.7 | 1.7
64 | CC(C)CN1CCN(Cc2cc3ccccc3[nH]2)CC1CCO (stereo not given) | -0.31 | 0.54
65 | Cc1ccc(C2=NCCn3nc4cc([N+](=O)[O-])ccc4c32)cc1 | 0.69 | 0.25
66 | Cc1ccc(C(C(=O)NCc2ccco2)N(C(=O)CNC(=O)c2cccs2)c2ccc(C)cc2)cc1 (stereo not given) | -2.9 | 0.48
67 | O=C(Oc1ccccc1C(=S)N1CCOCC1)c1ccccc1 | 0.98 | 0.58
68 | COc1ccc(C(=O)NC(=S)Nc2nnn(C)n2)cc1 | 0.8 | 2
69 | CCCCS(=O)(=O)N1CCCC(C(=O)Nc2ccc(Cl)cn2)C1 (stereo not given) | -1.4 | 0.33
70 | CN(C(=O)CCOc1ccccc1)c1c(N)n(Cc2ccccc2)c(=O)[nH]c1=O | 1 | 0.24
71 | Brc1ccc(/C=N/Nc2ccccn2)cc1 | -0.07 | 0.31
72 | CCC(=O)Oc1ccc2oc(=O)cc(C)c2c1 | 1.4 | 1
73 | O=C(CN(C(=O)CCC(=O)Nc1ccccn1)C1CCCC1)NCc1ccccc1 | -0.69 | 1.5
74 | COC(=O)c1ccc(NC(=O)CN2C(=O)CNC2=O)cc1 | -0.44 | 0.6
75 | CCCn1nc(C(=O)NNC(=O)CCCOc2ccc(C)cc2)c2ccccc2c1=O | 0.58 | 0.65
76 | O=C(O)CCN=CC1=C(O)CC(c2ccccc2)CC1=O (stereo not given) | 3.4 | 0.28
77 | O=C(CO/N=C/c1ccc(Cl)cc1Cl)NNC(=O)c1ccc(Cl)cc1Cl | 0.41 | 2.3
78 | CCOCC(=O)Nc1ccc([N+](=O)[O-])cc1OC | 0.57 | 0.8
79 | O=C(CN(CCCN1CCOCC1)C(=O)Cn1nnc(-c2ccc(F)cc2)n1)NC1CCCCC1 | 1.1 | 1.1
80 | COc1cc(/C=N/n2c(-c3ccccc3)n[nH]c2=S)cc(OC)c1OC | 0.01 | 0.86
81 | CCOC(=O)c1cnc(SC)nc1Oc1cccc(NC(=O)c2ccc(C)cc2)c1 | 2.2 | 0.26
82 | O=C(CCCc1nc(-c2ccccc2)no1)NC1CCCCC1 | 0.62 | 0.61
83 | NC(=S)N=Nc1c(O)[nH]c2ccc(F)cc12 | 0.3 | 0.19
84 | COC(=O)C1=C(C(=O)c2ccc(C)cc2)C(c2ccc(OC)c(OC)c2)n2nnnc2N1 (stereo not given) | 1.4 | 0.37
85 | COc1ccc2oc(C(=O)Nc3ccc(C)cn3)c(C)c2c1 | 1.1 | 1.4
86 | COC(=O)Nc1ccc(S(=O)(=O)Nc2cnc3ccccc3n2)cc1 | -0.63 | 0.8
87 | O=C(Cn1nc(-c2ccccc2)ccc1=O)NCC1COCCO1 (stereo not given) | -0.48 | 0.08
88 | NC(=O)c1ccc(NC(=O)COC(=O)CCc2ccc(S(=O)(=O)N3CCCCC3)cc2)cc1 | -2.2 | 2.1
89 | COc1ccc(C(=O)N(C)CCCC2CCCC2)cc1OC1CCN(C(C)=O)CC1 | -1.3 | 0.56
90 | CCOc1ccc(NC(=O)CSc2nnnn2C2CCCC2)cc1 | 0.02 | 0.75
91 | CN(Cc1ccccc1)C(=S)Nc1ccc(OC(F)F)cc1 | -0.82 | 0.47
92 | O=S(=O)(c1ccc(N2CCCC2)cc1)C(F)(F)F | 0.02 | 0.61
93 | COc1ccc2c(c1OC)C(=O)N1N=C(c3ccc(O)cc3)CC21 (stereo not given) | -3.1 | 0.92
94 | COc1ccc(NC(=S)NC(=O)c2cncc(Br)c2)cc1 | 0.32 | 1.5
95 | COc1ccc(C(=O)C2CCCN(C(=O)c3cc(C)on3)C2)cc1F (stereo not given) | -0.12 | 1.1
96 | Cc1ccc(NC(=O)CCl)cc1S(=O)(=O)N1CCCCCC1 | 1.3 | 0.62
97 | FC(F)(F)c1ccc(CN2CCN(Cc3ccco3)CC2)cc1 | 0.25 | 0.13
98 | N/C(=N\S(=O)(=O)c1cc(C(F)(F)F)cc(C(F)(F)F)c1)c1ccccc1 | -0.18 | 0.25
99 | Cc1c(C(=O)N2CCC[C@H]2CO)oc2c(F)cccc12 | 0.49 | 0.14
100 | O=[N+]([O-])c1cccc2c(S(=O)(=O)N3CCCCC3)cccc12 | 3.4 | 0.67
101 | CCOCCCNC(=O)c1cc2c(=O)n3cccc(C)c3nc2n1C | -1.6 | 0.05
102 | CCn1ccnc1CN(C)Cc1cn(C)nc1-c1ccccc1F | -0.28 | 1
103 | Cc1ccc2cc3cc(C(=O)NCCCN4CCc5ccccc5C4)oc3nc2c1 | 0.11 | 0.4
104 | O=C(Nc1c2c(nn1-c1ccc(F)cc1)CS(=O)(=O)C2)C1CCCC1 | 0.13 | 1.6
105 | CC(=O)Nc1cccc(NC(=O)C(=O)c2cn(CC(=O)N3CCCCC3)c3ccccc23)c1 | -0.4 | 0.73
106 | CC(Oc1ccc(Cl)cc1Cl)C(=O)NNC(=O)c1cccnc1 (stereo not given) | 0 | 1.2
107 | COc1cccc(NC(=O)C2CCCN2C(=O)Nc2ccccc2F)c1 (stereo not given) | -0.17 | 0.09

An excerpt; the hit share may differ from the screen's.
